CBX7 AlphaScr: CBX7 chromodomain binding inhibitors, primary screen, biochemical, AlphaScreen; AlphaScreen His6-CBX7 / biotin-H3K27me3 peptide binding; hits give low values; normalised signal (fraction of DMSO) (concentration not given with the values); 66,000 compounds, 1.1% hits; Chromobox protein homolog 7 (Homo sapiens), O95931; in the data active = normalised signal below about 0.5;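 note: 100 nL library stock added to about 20 µL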
Target sequence (O95931 whole entry, looked up): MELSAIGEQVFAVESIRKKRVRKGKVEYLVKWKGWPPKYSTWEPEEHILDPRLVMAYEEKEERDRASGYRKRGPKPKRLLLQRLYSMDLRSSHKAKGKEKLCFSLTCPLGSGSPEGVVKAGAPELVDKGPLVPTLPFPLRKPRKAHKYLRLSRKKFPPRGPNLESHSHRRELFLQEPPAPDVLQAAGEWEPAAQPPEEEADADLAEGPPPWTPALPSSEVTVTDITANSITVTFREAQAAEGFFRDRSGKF
CBX7 AlphaScr z-score: second read-out of CBX7 AlphaScr, no call of its own (marks repeat the call); z-score; measured here: z-score of CBX7 signal; some inactives read as strong as hits; reference of the scale not given here;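 same signal on another scale; lower means less binding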
An asterisk follows results filed as active. Not all compounds are listed; rates above refer to the full screens.

Preview:
canonical_smiles	CBX7 AlphaScr	CBX7 AlphaScr z-score
Cc1cccc(Nc2nc(Cc3ccccc3)nc3sc4c(c23)CCCC4)c1	1.1	2.2
CCN1CCN(CCCNC(=O)CN2C(=O)COc3ccc(S(=O)(=O)N(CC)CC)cc32)CC1	1.1	1.9
CC(C)OCCCNC(=O)c1cc2c(s1)-c1ccccc1OC2	1.1	3
COc1ccc(NC(=O)c2sc3nc(-c4ccccc4)cn3c2C)cc1OC	0.91	-1.7
Cc1cc(N2CCN(C)CC2)nc2ccc(NC(=O)c3cccs3)cc12	0.97	-1
Cc1ccccc1CN1C(=O)CSc2ccc(C(=O)NC3CCCC(C)C3C)cc21 (centres undefined)	1.1	1.3

The list itself, from the start:
canonical_smiles	CBX7 AlphaScr	CBX7 AlphaScr z-score
Cc1cccc(Nc2nc(Cc3ccccc3)nc3sc4c(c23)CCCC4)c1	1.1	2.2
CCN1CCN(CCCNC(=O)CN2C(=O)COc3ccc(S(=O)(=O)N(CC)CC)cc32)CC1	1.1	1.9
CC(C)OCCCNC(=O)c1cc2c(s1)-c1ccccc1OC2	1.1	3
COc1ccc(NC(=O)c2sc3nc(-c4ccccc4)cn3c2C)cc1OC	0.91	-1.7
Cc1cc(N2CCN(C)CC2)nc2ccc(NC(=O)c3cccs3)cc12	0.97	-1
Cc1ccccc1CN1C(=O)CSc2ccc(C(=O)NC3CCCC(C)C3C)cc21 (centres undefined)	1.1	1.3
O=C(NCCCN=C1NS(=O)(=O)c2ccccc21)c1ccncc1	1	1
Cc1c(C(=O)NCCc2ccc(Cl)cc2)oc2ccc(S(=O)(=O)N3CCOCC3)cc12	1	0.1
CC1CCN(C(=O)CC(C(=O)N2CCc3ccccc32)n2ccnc2)CC1 (centres undefined)	0.95	-1.3
CCOc1ccccc1NC(=O)Cn1c(=O)n(-c2ncccc2C(=O)OC)c(=O)c2cccnc21	1	0.25
COc1ccc2cc(CCNC(=O)c3ccccc3Cl)c(=O)[nH]c2c1	1.1	2.3
COCCNC(=O)c1cc2n(n1)C(C(F)(F)F)CC(c1ccc(Cl)c(Cl)c1)N2 (centres undefined)	1	0.16
O=C(NC1CCCC1)C(c1ccccc1)N1CCCCC1 (centres undefined)	1	1.6
Cc1oc(-c2ccccc2F)nc1CS(=O)(=O)CC(=O)NCCCN1CCN(C)CC1	1.1	2.8
O=C(Nc1nnc(-c2cccs2)o1)c1ccc(S(=O)(=O)N2CCCCC2)cc1	0.83	-3.9

(continued)
canonical_smiles	CBX7 AlphaScr	CBX7 AlphaScr z-score
COc1ccc(NC(=O)c2cc(-c3ccccc3Cl)nc3ccccc23)c(OC)c1	0.86	-0.5
FC(F)(F)c1nc2ccccc2n1CCOc1ccc(Cl)cc1	1.1	0.9
Cc1ccc(-c2noc(CN(C(=O)C34CC5CC(CC(C5)C3)C4)C(C)C)n2)cc1	0.98	-0.15
CCCCn1c(=N)n(CC(O)c2ccco2)c2ccccc21 (centres undefined)	1	0.42
Cc1ccc2c(c1)NC(=O)C(CC(=O)NCc1ccc3c(c1)OCO3)O2 (centres undefined)	1	1
Cc1ccc2c(c1)NC(=O)C(CC(=O)NCCN(C)C1CCCCC1)O2 (centres undefined)	1.1	2.8
CCOc1ccccc1NC(=O)c1c(-c2ccccc2Cl)noc1C	1.1	2.6
CCn1c(SCC(N)=O)nnc1-c1ccc2[nH]c(C)c(C)c2c1	0.97	-0.72
COc1ccc(-c2cn(-c3ccc(F)cc3)c(S(=O)(=O)CC(=O)Nc3cccc(Cl)c3)n2)cc1	0.78	-0.38
Cc1ccc(CNC(=O)CCc2nc(-c3ccccc3F)no2)cc1	1	1.7
O=C1CCCCCC1C(Nc1ccc2ccccc2c1)c1cccnc1 (centres undefined)	0.98	-0.65
COc1ccccc1N1CCN(C(=O)CCn2c(=O)[nH]c3ccccc3c2=O)CC1	1.1	0.25
COc1ccc(NC(=O)c2ccc(NC3=NC4CS(=O)(=O)CC4S3)cc2)cc1 (centres undefined)	1.1	0.95
COc1ccc(CCNC(=O)c2cc(=O)[nH]c3ccc(Br)cc23)cc1OC	0.98	-0.42
Cc1cccc(CSc2nc3ccncc3n2Cc2nc(-c3ccc(Cl)cc3)oc2C)c1	0.9	-1.4

Additional results follow:
canonical_smiles	CBX7 AlphaScr	CBX7 AlphaScr z-score
Cc1ccn2c(NC(=O)COc3ccc(Cl)cc3)c(-c3ccc(F)cc3)nc2c1	1.1	0.73
O=c1c(-c2ccccc2)coc2c(CN3CCCCCC3)c(O)ccc12	1	0.4
O=C1CSc2ccc(C(=O)NCCCN3CCOCC3)cc2N1	1.1	1.1
CCCN1Cc2cccc(C(=O)Nc3ccc(OC)cc3OC)c2C1=O	0.98	-0.021
COc1ccc(OC)c(C2=NOC(C(=O)NC(C)(C)C)C2)c1 (centres undefined)	1.1	2.2
CCOc1ccccc1NC(=O)c1c(NC(=O)c2ccccc2)sc2c1CCCC2	1.3	9.2
Cc1ccc(NC(=O)CN2C(=O)CC(c3ccccc3)Sc3ccccc32)cc1 (centres undefined)	0.96	-0.69
CC1(C)CC(=O)c2cc(-c3ccc(Br)cc3)n(-c3ccc4[nH]c(=O)[nH]c4c3)c2C1	0.94	-0.25
COC(=O)c1ccc(NC(=O)C23CC4CC(C2)CC(n2cncn2)(C4)C3)cc1	1.2	3
COc1ccc(-c2nc(C#N)c(NCCc3ccccc3)o2)cc1	0.99	-0.19
COc1ccccc1-n1nc(C(=O)NCc2cccnc2)c2ccccc2c1=O	1	0.43
O=C(O)c1ccc(N2C(=O)CC(N3CCN(c4ncccn4)CC3)C2=O)cc1 (centres undefined)	1.1	0.75
CCOc1ccc(CCNC(=O)Cn2c(-c3cncs3)nc3ccccc32)cc1OCC	0.95	-0.97
COc1ccc(OC)c(C2NC(c3cc(OC)ccc3OC)C3CCCC2C3=O)c1 (centres undefined)	0.99	-0.18
COC(CNC(=O)C1CC(=O)N(CCc2ccccc2)C1)OC (centres undefined)	0.99	-0.19

Next compounds follow.
canonical_smiles	CBX7 AlphaScr	CBX7 AlphaScr z-score
COc1ccc(-c2cc(C(=O)NCCN3CCOCC3)no2)cc1	1.3	1
CCCCSc1oc(-c2cccs2)nc1S(=O)(=O)c1ccc(Cl)cc1	1.2	0.31
Cc1ccccc1Nc1c(-c2cccs2)nc2cccc(C)n12	0.98	-0.57
COc1ccc(-c2nc3ccc(Br)cn3c2Nc2ccccc2C)cc1	1.1	0.63
COc1cc(NC(=O)c2cc(-c3cccs3)on2)c(OC)cc1Cl	1.4	3.9
Cc1cc(NC(=O)c2cc(-c3ccc4c(c3)OCO4)on2)nn1Cc1ccc(Cl)cc1	1.1	1.7
CCOC(=O)c1cnc2ccc(C)cc2c1Nc1ccc(N(C)C)cc1	0.38*	-7.1*
O=C(Nc1ccc(-c2noc(COc3ccc(Br)cc3)n2)cc1)c1cccnc1	1.2	2.8
COCC(=O)NCCCc1nc2ccccc2n1Cc1c(F)cccc1Cl	1.1	1.5
Cc1ccc(CN2C(=O)CCC2(C)C(=O)NC2CCCCC2)cc1 (centres undefined)	0.9	-1.6
COc1ccc(-c2cc(C(=O)O)c3cc(Br)ccc3n2)c(OC)c1	1	0.45
Cc1ccc(S(=O)(=O)Nc2ccccc2C(=O)Nc2nc3c(Cl)cccc3s2)cc1	0.8	-3.4
Cc1c(C(=O)NCc2ccccc2)oc2ccc(S(=O)(=O)N(C)C3CCCCC3)cc12	0.96	-0.43
Cc1nnc(Sc2cc(C(=O)NCCN3CCOCC3)c3ccccc3n2)s1	1.1	0.92
COc1ccccc1CNC(=O)CNc1ccccc1-c1nc2ccccc2[nH]c1=O	1	1.8

Next entries:
canonical_smiles	CBX7 AlphaScr	CBX7 AlphaScr z-score
COc1ccc(C2C(C(=O)Nc3cccc(C)n3)=C(C)NC3=C2C(=O)CCC3)c(OC)c1 (centres undefined)	1.4	0.79
Cc1ccc2c(c1)c1c(n2CC(O)Cn2nnc3ccccc32)CCCC1 (centres undefined)	0.79	-6.9
CCC1Sc2ccccc2N(CC(=O)NCc2cccnc2)C1=O (centres undefined)	1	1.7
CCN(CC)S(=O)(=O)c1ccc2oc(C(=O)NCc3ccc4c(c3)OCO4)c(C)c2c1	1	0.066
CCN(C(=O)Cn1c(C(=O)OC)cc2ccsc21)c1cccc(C)c1	0.97	-0.91
Cc1oc(-c2ccc(Cl)cc2)nc1C(=O)NCc1ccc(F)cc1	1	0.02
Cc1cc(NC(=O)Cn2cnc3c(nnn3Cc3ccc(F)cc3)c2=O)no1	0.87	-2.1
CCCCn1c(=N)n(CC(O)c2ccc(OCC)cc2)c2ccccc21 (centres undefined)	1	0.053
Cc1ccc(NC(=O)c2cc(S(=O)(=O)N3CC(C)CC(C)C3)ccc2F)cc1C (centres undefined)	0.8	-1.6
CCC(=O)N1CCc2cc(S(=O)(=O)Nc3ccccc3N3CCN(C)CC3)ccc21	1.1	1.6
CCOc1ccc(NC(=O)c2cc3c(n(-c4ccccc4)c2=O)CCCC3=O)cc1	1.2	2.7
Cc1ccc(-c2n[nH]c(=O)c3ccccc23)cc1S(=O)(=O)NC(C)(C)CO	0.96	-0.49
O=C(CCCN1C(=O)c2cccnc2C1=O)N1CCN(c2cccc(Cl)c2)CC1	0.56	-7.4
CSc1nc2cc(Oc3ccc(Br)c4ccccc34)c(Cl)cc2[nH]1	1.2	3.6
CCC(=O)N1CCc2cc(S(=O)(=O)NCCC(=O)Nc3ccc(Br)cc3)ccc21	0.89	-0.11

Additional entries
Compound,CBX7 AlphaScr,CBX7 AlphaScr z-score
CC(=O)Nc1ccc(-c2cn3cccc(C)c3n2)cc1,1,0.89
O=C(NCCCN1CCCC1)c1ccc2c(c1)N(Cc1c(F)cccc1Cl)C(=O)CS2,1,1.4
COc1ccc(-c2cc(C(F)(F)F)nc(N3CCc4ccccc4C3)n2)cc1,1.8,6.5
C=CCn1c(SCC(=O)NCCOc2ccccc2)nnc1-c1ccc(OC)cc1,0.85,-2.1
Cc1cccc(Nc2ncc(F)c(Nc3cccc(C)c3)n2)c1,0.96,-0.36
Cn1nc(-c2ccc(Cl)cc2)c2cc(C(=O)NCC3COc4ccccc4O3)sc21 (centres undefined),1.2,0.74
CCc1c(C)nc2c(-c3cccc(Br)c3)c[nH]n2c1=O,0.99,-0.23
O=C(NCCCn1ccnc1)C(=O)Nc1cccc(C(F)(F)F)c1,0.99,-0.31
Cc1cc(N2CCN(c3ncccn3)CC2)nc2ccc(NC(=O)c3cccc(Cl)c3)cc12,1.1,0.78
COc1ccc(-n2cnc3cc(NCc4cccc5ccccc45)ccc32)cc1,0.31*,-4.3*
Cc1cc(OC2N(c3ccccc3)C(=O)N(C)C2(C)C)no1 (centres undefined),1.2,1.7
CC1CCN(S(=O)(=O)c2ccc3c(c2)N(CC(=O)NCCC2=CCCCC2)C(=O)CO3)CC1,1,0.8

(continued)
Compound,CBX7 AlphaScr,CBX7 AlphaScr z-score
Cc1onc(-c2c(F)cccc2Cl)c1C(=O)N1CCN(c2ccccn2)CC1,1,1
Cc1ccccc1C(=O)Nc1sc2c(c1C(=O)N1CCCC1)CCCC2,1.2,2.1
CCOC(=O)c1cnc2c(C)cc(C)cc2c1Nc1ccc(F)cc1,1.2,2.2
O=C(Nc1cnn(Cc2ccc(Cl)cc2Cl)c1)c1cc(-c2ccc(F)cc2)on1,0.98,-1.1
O=C(Nc1nnc(C2CCCC2)s1)c1cccc(Cl)c1,1.1,0.25
O=C(Nc1ccc2c(c1)OCO2)c1cc(-c2ccc(Cl)cc2)on1,0.99,-0.49
Cc1ccc(-n2cc(C(=O)Nc3ccc(F)cc3)c3ccccc3c2=O)cc1C,1,-0.019
Cc1ccc(C)c2[nH]c(=O)c(CCNC(=O)c3ccc(S(=O)(=O)N(C)C)cc3)cc12,1.1,1.4
Cn1cc(CC(=O)NCCCN2CCCC2)c2ccccc21,0.96,-1.4
COc1ccc(Nc2c3c(nc4ccccc24)CCC3)cc1,0.88,-2.1
CCOc1ccc(-n2c(/C=C/c3cccc(F)c3)nc3cc(OC)c(OC)cc3c2=O)cc1,0.98,-0.47
COc1cccc(-c2cc(C(=O)Nc3ccc(OC(F)(F)F)cc3)no2)c1,1,0.43

Some of the entries above in a different format:
The line under a structure holds: CBX7 AlphaScr	CBX7 AlphaScr z-score
- COc1cc(NC(=O)c2cc(-c3cccs3)on2)c(OC)cc1Cl
→ 1.4	3.9
- Cc1cc(NC(=O)c2cc(-c3ccc4c(c3)OCO4)on2)nn1Cc1ccc(Cl)cc1
→ 1.1	1.7
- CCOC(=O)c1cnc2ccc(C)cc2c1Nc1ccc(N(C)C)cc1
→ 0.38*	-7.1*
- O=C(Nc1ccc(-c2noc(COc3ccc(Br)cc3)n2)cc1)c1cccnc1
→ 1.2	2.8

Next compounds follow.
Compound,CBX7 AlphaScr,CBX7 AlphaScr z-score
CC(=O)Nc1ccc2[nH]c(C)cc(=O)c2c1,1.2,1.7
CCOc1cc2c(cc1OCC)C(c1ccccc1OCC)CC(=O)N2 (centres undefined),1.2,1.1
CCOc1ccc(-n2nc(C(=O)Nc3ccc(OC)c(OC)c3)c3ccccc3c2=O)cc1,0.92,-1.4
O=C(c1ccc2c(c1)N(Cc1ccccc1)CCS2)N1CCN(c2ccc(Cl)cc2)CC1,0.62,-0.5
Cc1c(C(=O)N2CCCC(C)C2)sc2ncn(CC(=O)N3CC(C)CC(C)C3)c(=O)c12 (centres undefined),1,0.33
O=C(Cn1cnc2c(nnn2Cc2ccc(F)cc2)c1=O)Nc1ccc(F)cc1,0.87,-2.1
Cc1cc(C)cc(NS(=O)(=O)c2ccc3c(c2)CCN3C(=O)C2CC2)c1,0.94,-1.7
CCCCN(CC)S(=O)(=O)c1ccc(C(=O)Nc2nc(-c3ccncc3)cs2)cc1,1,0.45
CCOCCCNC(=O)c1ccc2c(c1)N(Cc1cc(C)ccc1C)C(=O)c1ccccc1S2=O (centres undefined),0.97,-0.23

Bioassay records (PubChem BioAssay)
